Screening data from PubChem.
MLL AF4-AF9 inh: inhibitors of AF4 peptide binding to AF9, primary screen, biochemical, AlphaScreen, biotin-AF4 peptide, FLAG-AF9, single point; Protein AF-9 (Homo sapiens), P42568; inhibition, % at 10 µM; 0.47% of 350,000 active;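 active means every replicate reaching a set inhibition limit, whatever the replicate mean, cut at about 25% in these data; inconclusive means mean inhibition reaches that limit but some replicates miss it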;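 further: 0% = plate neutral control median and 100% = total signal loss; the record names both 10 and 1 µM as test concentration; the first replicate is given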
Target sequence (P42568 whole entry, looked up): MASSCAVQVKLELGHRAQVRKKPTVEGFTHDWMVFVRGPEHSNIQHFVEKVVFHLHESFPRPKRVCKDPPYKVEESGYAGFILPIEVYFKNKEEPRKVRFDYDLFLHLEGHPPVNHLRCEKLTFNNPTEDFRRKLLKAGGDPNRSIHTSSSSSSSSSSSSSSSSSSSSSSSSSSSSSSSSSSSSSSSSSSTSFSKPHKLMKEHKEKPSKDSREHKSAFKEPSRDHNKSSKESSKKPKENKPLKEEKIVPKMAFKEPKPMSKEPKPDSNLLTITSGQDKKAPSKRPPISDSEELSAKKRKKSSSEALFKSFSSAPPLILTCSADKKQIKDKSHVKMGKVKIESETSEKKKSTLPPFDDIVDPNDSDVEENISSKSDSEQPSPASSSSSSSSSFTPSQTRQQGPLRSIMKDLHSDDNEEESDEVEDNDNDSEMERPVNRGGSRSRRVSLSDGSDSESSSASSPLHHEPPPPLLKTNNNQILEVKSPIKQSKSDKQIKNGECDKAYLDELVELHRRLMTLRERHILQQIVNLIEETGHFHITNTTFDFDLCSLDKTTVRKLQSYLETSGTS
FGF22 binding: binders of human FGF22 protein, primary screen, FGF22 synaptogenesis inhibitor project, biophysical, thermal shift, single point. Fibroblast growth factor 22 (Homo sapiens), Q9HCT0. recombinant FGF22 thermal shift, SYPRO orange fluorescence; percent of sucrose octasulfate shift, DMSO zero. calls only at 9.99 µM. 1.5% of 340,000 active. AID 651658, 2012;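 active means melting point raised past a set limit in the mean and every replicate; inconclusive means no clear call; three in four hits are not shown here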
Ecoli rRNA inh: reduced GFP signal of wild-type E. coli, primary screen, bacterial rRNA inhibitor project, GFP/RFP fluorescence, OD600, single point; E. coli WT GFP vs humanized-ribosome RFP mutants, 24 h; hits give low values; DMSO median 0, no signal -100; GFP signal change (wild-type ribosome), % (test concentration not listed); 1.6% of 350,000 active; AID 720706, 2013;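 active means significant combined selectivity score with lowered wild-type GFP, culture density cut under 30%, mutant RFP and density less affected; inactive means any of these conditions unmet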; further: one replicate is shown; some compounds called inactive have numbers as strong as hits
Vif TR-FRET: inhibitors of Vif binding to APOBEC3G peptide, primary screen, biochemical, TR-FRET, GST-Vif 1-94, biotin-A3G peptide, dose response retest (AID 1117319). TR-FRET GST-Vif / biotin-A3G peptide binding; higher % means a stronger effect; test concentration not given here; strong numbers were not always called active. one-dose inhibition, %; IC50 in µM for titrated hits. 0.57% of 260,000 active;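 active means above the screen mean plus three standard deviations and confirmed in dose response; inconclusive means results disagree or hit not tested in dose response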;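 further: Vif residues 1-94 fused to GST binding biotinylated APOBEC3G peptide 110-148; 0% = full assay without inhibitor and 100% = GST in place of GST-Vif; retest series ran down from 100 µM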
E coli growth: E. coli growth inhibition, primary screen, OD600. Escherichia coli growth, 23 h; hits give low values. 0.21% of 330,000 active. OD600 absorbance (no concentration beside the values). AID 1053175, 2014;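 active means OD600 absorbance below the run mean of sample wells minus 3.6 SD, in any replicate, cut at about 0.56 in these data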;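 further: stock transfer was 300 nL into about 60 µL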
ALR inh: inhibitors of human ALR sulfhydryl oxidase, primary screen, biochemical, H2O2 detection, HRP-luminol luminescence, single point; FAD-linked sulfhydryl oxidase ALR (Homo sapiens), P55789; purified ALR, DTT oxidation; inhibition, % (test concentration not listed); 3.8% of 290,000 active;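 active means mean and each replicate at 75% or more; inconclusive means only one of the two met; inactive means neither met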;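 further: stock transfer was 7.5 nL into about 7.5 µL; 0% = neutral wells and 100% = wells with inactivated enzyme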
HNF4A DNA FP: change in binding of human HNF4A to DNA, primary screen, biochemical, fluorescence polarization, FITC-DNA. Hepatocyte nuclear factor 4-alpha (Homo sapiens), P41235. 1 h. activity change, % at 10 µM. 0.3% of 360,000 active. AID 1224865, 2016; in the data active means activity change above about 30%, passing the limit was not always enough;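 further: controls were the assay level and a saturating level of protein; the project sought stronger binding though the title names inhibitors; some compounds called inactive have numbers as strong as hits; positive values seem to mean higher polarization but the record does not say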
Target sequence (P41235 whole entry, looked up): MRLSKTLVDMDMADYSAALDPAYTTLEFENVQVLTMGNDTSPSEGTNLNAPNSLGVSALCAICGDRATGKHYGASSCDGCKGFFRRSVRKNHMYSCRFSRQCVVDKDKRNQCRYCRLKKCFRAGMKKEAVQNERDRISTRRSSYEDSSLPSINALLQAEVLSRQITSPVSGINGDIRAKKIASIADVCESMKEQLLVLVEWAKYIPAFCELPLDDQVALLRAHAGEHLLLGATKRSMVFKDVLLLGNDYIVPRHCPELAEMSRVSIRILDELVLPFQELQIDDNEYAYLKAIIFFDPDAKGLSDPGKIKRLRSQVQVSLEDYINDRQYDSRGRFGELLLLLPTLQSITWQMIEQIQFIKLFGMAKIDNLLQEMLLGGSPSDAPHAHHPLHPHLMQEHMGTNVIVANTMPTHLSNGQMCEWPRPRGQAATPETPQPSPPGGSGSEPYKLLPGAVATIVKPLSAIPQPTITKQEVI
Ecoli rRNA inh OD600: recorded beside Ecoli rRNA inh, whose call it bears; OD600 change, %; measured here: OD600 growth;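 optical density of the mix in the first replicate; 0 = DMSO median and -100 = no signal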
Ecoli rRNA inh RFP: further read-out of Ecoli rRNA inh, marked with its call; RFP signal change, %; measured here: RFP humanized mutant strains;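 first replicate; 0 = DMSO median and -100 = no signal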
* marks the source's active call; other numbers are inactive results. This is a subset, so the mix of outcomes need not match the whole.

What do the screens show for `CN1CCN(CCCNC(=O)c2ccc(Cn3c(=S)[nH]c4ccc(Br)cc4c3=O)cc2)CC1`?
MLL AF4-AF9 inh: 7.5; FGF22 binding: inactive; Ecoli rRNA inh: 6; Vif TR-FRET: -13%; E coli growth: 0.69; ALR inh: inconclusive; HNF4A DNA FP: 3.6; Ecoli rRNA inh OD600: -3; Ecoli rRNA inh RFP: 3.3

What do the screens show for `Cc1ccc(NC(=O)N2CCCC(C(=O)O)C2)cc1` (configuration not stated)?
MLL AF4-AF9 inh: 13; FGF22 binding: inactive; Ecoli rRNA inh: 7; Vif TR-FRET: 3%; E coli growth: 0.7; ALR inh: -2; HNF4A DNA FP: 0.2; Ecoli rRNA inh OD600: 1; Ecoli rRNA inh RFP: -4.5

Results for O=C(COc1ccc([N+](=O)[O-])cc1)Nc1ccc(S(=O)(=O)N2CCOCC2)cc1 ?
MLL AF4-AF9 inh: 1.5; FGF22 binding: inactive; Ecoli rRNA inh: -8; E coli growth: 0.64; ALR inh: 0; HNF4A DNA FP: 0.6; Ecoli rRNA inh OD600: 5; Ecoli rRNA inh RFP: 1.1

What do the screens show for `COc1ccccc1CCN1CCCC(CN(C)C(=O)CCC(N)=O)C1` (configuration not stated)?
MLL AF4-AF9 inh: 0.8; FGF22 binding: inactive; Ecoli rRNA inh: 16; E coli growth: 0.7; ALR inh: -1; HNF4A DNA FP: 0.3; Ecoli rRNA inh OD600: 8; Ecoli rRNA inh RFP: 7.2

How did COc1cccc(C(=O)Nc2ccc3c(c2)C(=O)N(C)[C@@H]2CC[C@H](CC(=O)N[C@@H](C)c4ccccc4)O[C@@H]2CO3)c1 do in these assays?
MLL AF4-AF9 inh: 0.6; FGF22 binding: inactive; Ecoli rRNA inh: -7; Ecoli rRNA inh OD600: -10; Ecoli rRNA inh RFP: -1.0

How did Cn1c(N)c(C(=O)COC(=O)C2CCC(C(C)(C)C)CC2)c(=O)n(C)c1=O (configuration not stated) do in these assays?
Vif TR-FRET: 15%; E coli growth: 0.73; ALR inh: -7; HNF4A DNA FP: 1.4

What do the screens show for `C#CCOCCOCCOCCNc1nc(N2CCN(C(=O)[C@H](CC(N)=O)n3cc([C@@H](N)C(C)C)nn3)CC2)nc(N2CCN(C(=O)[C@H](CC(N)=O)n3cc([C@@H](N)C(C)C)nn3)CC2)n1`?
MLL AF4-AF9 inh: 2.4; FGF22 binding: inactive; Ecoli rRNA inh: 9; ALR inh: 1; HNF4A DNA FP: 1.0; Ecoli rRNA inh OD600: 11; Ecoli rRNA inh RFP: -8.3

Results for Cc1cc(S(=O)(=O)N2CCCC2)ccc1OCC(=O)NCc1ccco1 ?
Vif TR-FRET: 11%; E coli growth: 0.68; ALR inh: 0; HNF4A DNA FP: 0.5

How did COc1ccc(CC(=O)NCCS(=O)(=O)N2CCN(c3ccc(F)cc3)CC2)cc1OC do in these assays?
MLL AF4-AF9 inh: -0.7; FGF22 binding: inactive; Ecoli rRNA inh: -2; Vif TR-FRET: 1%; E coli growth: 0.7; ALR inh: 8; HNF4A DNA FP: 1.7; Ecoli rRNA inh OD600: -3; Ecoli rRNA inh RFP: 1.0

What do the screens show for `Cc1cc(OCC(=O)N(C)c2c(N)n(Cc3ccccc3)c(=O)[nH]c2=O)c(C(C)C)cc1Cl`?
MLL AF4-AF9 inh: -1.1; FGF22 binding: inactive; Ecoli rRNA inh: 10; Vif TR-FRET: -1%; E coli growth: 0.66; ALR inh: -4; HNF4A DNA FP: 4.3; Ecoli rRNA inh OD600: 13; Ecoli rRNA inh RFP: 1.0

How did COc1ccc(-c2csc(NC(=O)CN3C(=O)CCC3=O)n2)c(OC)c1 do in these assays?
MLL AF4-AF9 inh: 2.4; FGF22 binding: inactive; Ecoli rRNA inh: -6; E coli growth: 0.69; HNF4A DNA FP: -1.6; Ecoli rRNA inh OD600: -7; Ecoli rRNA inh RFP: -3.2

What do the screens show for `CCN1CCN(c2ccc(S(=O)(=O)N3CCOCC3)cc2NC(=O)CCOc2ccccc2)CC1`?
MLL AF4-AF9 inh: -0.2; FGF22 binding: inactive; Ecoli rRNA inh: 11; E coli growth: 0.67; ALR inh: 2; HNF4A DNA FP: 0.3; Ecoli rRNA inh OD600: 3; Ecoli rRNA inh RFP: 2.0

What do the screens show for `Nc1nc(SCC(=O)N2N=C3/C(=C\c4ccco4)CCCC3C2c2ccco2)n[nH]1` (configuration not stated)?
MLL AF4-AF9 inh: 3.9; FGF22 binding: inactive; Ecoli rRNA inh: 9; Vif TR-FRET: 7%; E coli growth: 0.68; HNF4A DNA FP: -0.6; Ecoli rRNA inh OD600: 10; Ecoli rRNA inh RFP: 13

How did Cc1cc(-c2ccccc2)nc(-c2ccccc2)c1C do in these assays?
MLL AF4-AF9 inh: -7.8; FGF22 binding: inactive; Ecoli rRNA inh: -12; E coli growth: 0.64; HNF4A DNA FP: 1.1; Ecoli rRNA inh OD600: -4; Ecoli rRNA inh RFP: 3.7

Results for C[C@@H]1CN([C@@H](C)CO)C(=O)c2cc(-c3ccc(C(=O)N(C)C)cc3)cnc2O[C@H]1CN(C)Cc1ccc(C(=O)O)cc1 ?
MLL AF4-AF9 inh: -3.7; FGF22 binding: inactive; Ecoli rRNA inh: 2; Ecoli rRNA inh OD600: -5; Ecoli rRNA inh RFP: -3.9

How did Cc1cnc2cc([N+](=O)[O-])ccc2n1 do in these assays?
MLL AF4-AF9 inh: -6.2; FGF22 binding: inactive; Ecoli rRNA inh: 19; Vif TR-FRET: -4%; E coli growth: 0.66; ALR inh: -14; HNF4A DNA FP: -2.7; Ecoli rRNA inh OD600: 7; Ecoli rRNA inh RFP: -1.6

What do the screens show for `C/C(=N\NC(=O)c1csc(C)c1C)c1ccc(Cl)s1`?
Vif TR-FRET: 2%; ALR inh: -3; HNF4A DNA FP: 2.6

Results for Cc1nn(CC2CC2)c(=O)n1-c1ccc(C(C)C)cc1 ?
MLL AF4-AF9 inh: -0.5; FGF22 binding: inactive; Ecoli rRNA inh: 2; Vif TR-FRET: -4%; E coli growth: 0.71; ALR inh: -5; HNF4A DNA FP: -2.4; Ecoli rRNA inh OD600: -8; Ecoli rRNA inh RFP: 2.7

Results for Cc1ccccc1-c1cnc2c(c1)C(=O)N([C@H](C)CO)C[C@@H](C)[C@H](CN(C)Cc1cccnc1)O2 ?
MLL AF4-AF9 inh: -3.4; FGF22 binding: inactive; Ecoli rRNA inh: -1; Ecoli rRNA inh OD600: 4; Ecoli rRNA inh RFP: -0.9

What do the screens show for `CCCN(C)C[C@@H]1OCCCC[C@H](C)Oc2ccc(NS(=O)(=O)c3ccc(C)cc3)cc2C(=O)N([C@H](C)CO)C[C@@H]1C`?
MLL AF4-AF9 inh: 11; FGF22 binding: inactive; Ecoli rRNA inh: 0; Ecoli rRNA inh OD600: -5; Ecoli rRNA inh RFP: 1.6

How did Cc1ccc2nc(C)cc(C(=O)N/N=C/c3ccncc3)c2c1 do in these assays?
MLL AF4-AF9 inh: -0.7; FGF22 binding: inactive; Ecoli rRNA inh: 4; Vif TR-FRET: 2%; ALR inh: 2; HNF4A DNA FP: 3.5; Ecoli rRNA inh OD600: 13; Ecoli rRNA inh RFP: 2.0

How did O=C(C[C@@H]1CC[C@H]2[C@@H](COC[C@H](O)CN2Cc2nccs2)O1)NCc1ccc(Cl)cc1 do in these assays?
MLL AF4-AF9 inh: 9.0; FGF22 binding: inactive; Ecoli rRNA inh: 1; Ecoli rRNA inh OD600: 0; Ecoli rRNA inh RFP: -0.8

What do the screens show for `Cc1cc2oc(=O)cc(CN3CCN(Cc4ccc5c(c4)OCO5)CC3)c2cc1C`?
Vif TR-FRET: -7%; E coli growth: 0.71; ALR inh: -1; HNF4A DNA FP: 4.0

Results for CSc1ccc(Cl)c(C(=O)NCCOc2ccccc2)c1 ?
Vif TR-FRET: -2%; E coli growth: 0.69; ALR inh: -14; HNF4A DNA FP: -0.1

How did Cc1ccc2c(c1)=C(c1ccccc1)N(O)CC(=O)N=2 do in these assays?
MLL AF4-AF9 inh: -1.6; FGF22 binding: inactive; Ecoli rRNA inh: 13; Vif TR-FRET: 3%; E coli growth: 0.59; HNF4A DNA FP: -1.8; Ecoli rRNA inh OD600: 5; Ecoli rRNA inh RFP: 0.4

Results for CCCCNC(=S)NNC(=O)c1ccc(Br)o1 ?
Vif TR-FRET: 20%; E coli growth: 0.71; HNF4A DNA FP: 2.5

Results for O=S(=O)(NC1CCCCC1N1CCCCC1)c1ccc(Cl)cc1 (configuration not stated) ?
MLL AF4-AF9 inh: -8.5; FGF22 binding: inactive; Ecoli rRNA inh: 20; Vif TR-FRET: 24%; E coli growth: 0.68; ALR inh: -24; HNF4A DNA FP: 1.2; Ecoli rRNA inh OD600: 9; Ecoli rRNA inh RFP: 8.7

Results for O=C(Nc1ccc(S(=O)(=O)N2CCCCC2)cc1)c1ccc(Cl)nc1 ?
MLL AF4-AF9 inh: -3.1; FGF22 binding: inactive; Ecoli rRNA inh: 3; E coli growth: 0.67; ALR inh: -4; HNF4A DNA FP: 0.4; Ecoli rRNA inh OD600: 13; Ecoli rRNA inh RFP: -0.6

What do the screens show for `Cc1ccccc1-c1cc(C(=O)N/N=C/c2cccnc2)c2ccccc2n1`?
MLL AF4-AF9 inh: 4.7; FGF22 binding: inactive; Ecoli rRNA inh: -2; ALR inh: -7; HNF4A DNA FP: 0.9; Ecoli rRNA inh OD600: -4; Ecoli rRNA inh RFP: -0.1

How did O=c1[nH]c2sc3c(c2c(=O)n1Cc1ccccc1)CCC3 do in these assays?
Vif TR-FRET: 1%; E coli growth: 0.7; ALR inh: 56; HNF4A DNA FP: 3.5

What do the screens show for `CC(C)C[C@H](NC(=O)c1nc[nH]c1C(=O)N1CCN(c2ccccc2)CC1)C(=O)OC(C)(C)C`?
MLL AF4-AF9 inh: 2.8; FGF22 binding: inactive; Ecoli rRNA inh: 7; Vif TR-FRET: 71%; ALR inh: 25; HNF4A DNA FP: -0.5; Ecoli rRNA inh OD600: 13; Ecoli rRNA inh RFP: 2.9

What do the screens show for `N#CCCNC(=O)CCN1CCOCC1`?
Vif TR-FRET: 0%; E coli growth: 0.7; ALR inh: -2; HNF4A DNA FP: 2.6

Results for FC(F)(F)c1cccc(N2CCN(C3CC4CCC3C4)CC2)c1 (configuration not stated) ?
MLL AF4-AF9 inh: -1.3; FGF22 binding: inactive; Ecoli rRNA inh: -9; Vif TR-FRET: -4%; E coli growth: 0.63; ALR inh: 3; HNF4A DNA FP: 0.1; Ecoli rRNA inh OD600: -4; Ecoli rRNA inh RFP: 0.6
